Bioassay records deposited in PubChem by several laboratories.
RecA splice inh = Mtb RecA intein splicing inhibitors, primary screen, biochemical, fluorescence, HTS. cell-free RecA intein splicing. inhibition, %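 (about 9 µM by stock and volumes)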. actives 0.75% (n = 290,000); in the data active means inhibition above about 30%; inconclusive means no clear call, values can overlap the other calls;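 further: 0% = vehicle wells and 100% = reference inhibitor control wells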
Target sequence (P9WHJ3 whole entry, looked up, canonical isoform): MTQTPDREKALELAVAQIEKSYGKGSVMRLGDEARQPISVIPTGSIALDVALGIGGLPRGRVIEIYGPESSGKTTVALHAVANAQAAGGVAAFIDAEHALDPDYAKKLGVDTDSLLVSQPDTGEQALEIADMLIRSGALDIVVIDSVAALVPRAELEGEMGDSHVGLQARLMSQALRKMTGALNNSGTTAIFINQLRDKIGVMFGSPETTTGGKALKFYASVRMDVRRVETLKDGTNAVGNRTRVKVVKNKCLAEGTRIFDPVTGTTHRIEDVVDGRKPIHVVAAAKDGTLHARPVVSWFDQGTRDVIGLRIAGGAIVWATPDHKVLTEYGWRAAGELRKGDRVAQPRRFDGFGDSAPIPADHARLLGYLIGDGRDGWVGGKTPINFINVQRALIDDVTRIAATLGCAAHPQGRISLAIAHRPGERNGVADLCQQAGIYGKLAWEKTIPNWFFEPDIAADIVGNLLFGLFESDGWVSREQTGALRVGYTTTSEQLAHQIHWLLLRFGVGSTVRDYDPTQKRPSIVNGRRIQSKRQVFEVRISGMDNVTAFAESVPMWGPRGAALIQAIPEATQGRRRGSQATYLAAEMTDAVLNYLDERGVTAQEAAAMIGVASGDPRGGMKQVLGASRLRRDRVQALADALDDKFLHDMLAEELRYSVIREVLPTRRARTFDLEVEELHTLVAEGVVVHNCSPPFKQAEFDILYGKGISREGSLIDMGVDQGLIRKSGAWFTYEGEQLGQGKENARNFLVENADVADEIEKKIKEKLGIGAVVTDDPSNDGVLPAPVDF
Arbovirus inh = antivirals against arbovirus infection, primary screen, cell-based, full library, 10K replicate subset | arbovirus infection cell-based antiviral screen | AID 1251, 2008 | actives 0.37% (n = 200,000) | inhibition, % at 10 µM;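 active means inhibition from about 30%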;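 further: bluetongue infection of BSR cells; cell survival read as ATP light after 72 h; 0% = infected wells without compound and 100% = uninfected wells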
YopH inh = YopH tyrosine phosphatase inhibitors, primary screen, biochemical, fluorescence Ex485/Em525. YopH tyrosine phosphatase [Yersinia enterocolitica]. inhibition, %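 (about 10 µM by stock and volumes)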. actives 0.16% (n = 140,000). AID 898, 2007;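 active means inhibition of 50% or more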;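 further: controls were vehicle for no effect and minimum signal wells for full effect; inactives centre near -20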
Mtb H37Rv = M. tuberculosis H37Rv growth inhibitors, H37Rv strain (AID 1626). M. tuberculosis H37Rv growth inhibition; higher % means a stronger effect. actives 0.95% (n = 220,000). inhibition, % at 10 µM, or IC50 in µM where a hit was titrated;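 active means confirmed in a dose series; inconclusive means inhibition above 80% but not taken into the dose series; inactive means below 80% or under 30% at every dose of the series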;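 further: bacteria incubated seven days before Alamar blue readout; 0% = bacteria only wells and 100% = bacteria with antibiotic wells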
Mtb bLac sens = beta-lactam sensitization of Mtb H37Rv, H37Rv; M. tuberculosis H37Rv growth with meropenem, percent inhibition; hits of this screen are not shown here; inhibition, % at 25 µM; actives 0.27% (n = 330,000);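 active means about 74% or more and at least 40 points above the plate without the antibiotic, then above 30% in a dose series; inconclusive means first-round hits that could not be retested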;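 further: growth measured after seven days incubation then overnight dye step; 0% = bacteria only wells and 100% = bacteria with antibiotic; twin plates without the antibiotic show which effects depend on it; some results filed as inactive read as strong as hits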
Arbovirus inh repeat = also measured in Arbovirus inh; calls as there; inhibition, %; measured here: 10K subset replicate screen; many hits read low in the repeat;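 first of two repeat runs on a subset; 0% = infected and 100% = uninfected wells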
Active calls of the source: *; u = inconclusive; x = no result given. Not all compounds are listed; the hit share may differ from the screen's.

SMILES | RecA splice inh | Arbovirus inh | YopH inh | Mtb H37Rv | Mtb bLac sens | others
CCOCCCNC(=O)c1cc(-c2cccnc2)nc2ccc(S(=O)(=O)N3CCC(C)CC3)cc12 | 1.6 | x | x | x | -2
Cc1ccc(C)n1C(CC(=O)O)c1ccc(C#N)cc1 (stereo unspecified) | -2.5 | 7 | x | -4% | 3
CCN1C(=O)C2(C(C(=O)c3cc4ccccc4o3)=C(O)C(=O)N2CCCN(C)C)c2ccccc21 (stereo unspecified) | 0.1 | x | x | -3% | -11
CC1CCC(N2CCN(c3ccc([N+](=O)[O-])cc3)CC2)CC1 (stereo unspecified) | 1.1 | x | x | x | 0
O=C(NCc1ccco1)c1cc([N+](=O)[O-])cc([N+](=O)[O-])c1 | -0.9 | -12 | -1 | 1.5µM* | 100
CC(c1nnc(SCC(=O)Nc2cccnc2Cl)n1Cc1ccccc1)N(C)C (stereo unspecified) | -1.0 | 5 | x | -7% | -1
CN(C)C(CNC(=O)c1ccc2ccccc2c1)c1ccco1 (stereo unspecified) | -3.8 | 2 | x | 5% | -13
c1cc(CNC2C3CC4CC(C3)CC2C4)ccn1 (stereo unspecified) | -0.9 | 0 | x | 1% | 1
O=C(COC(=O)c1cccc(S(=O)(=O)NCc2ccccc2)c1)c1ccccc1 | 0.2 | 3 | -32 | 5% | -4
COc1ccc(CCN2CNc3c(c(=O)n(C)c(=O)n3C)C2)cc1 | 0.8 | 12 | -22 | -4% | -7
COC(=O)c1sccc1NC(=S)Nc1ccc(F)cc1 | -3.5 | -2 | -6 | 1% | -4
CCOC(=O)C1CCCN(S(=O)(=O)c2nc3nc(C)cc(C)n3n2)C1 (stereo unspecified) | -1.0 | x | x | x | -1
O=C(NC1CCCCC1)C(=O)N(Cc1cccnc1)C(C(=O)NCc1ccco1)c1ccccc1 (stereo unspecified) | -1.2 | 9 | x | 0% | -1
C=CCc1cc(Cl)ccc1OCCN(C)C | -0.6 | 6 | -40 | 0% | 64
CCNC(=S)N(CCc1c(C)[nH]c2ccc(C)cc12)Cc1cccs1 | 9.9 | -20 | x | 9% | 2
O=C(Nc1nccs1)C1CC(=O)N(c2ccccc2Cl)C1 (stereo unspecified) | -0.2 | 0 | 5 | -3% | -6
CCN(CC)CCNC(=O)Cn1nc(-c2ccc(C)cc2)ccc1=O | 6.6 | 3 | -18 | -10% | 6
Cc1ccc(-c2cc(N)n(-c3ccc(C)cc3)n2)cc1 | 2.2 | -6 | -5 | 10% | -2
CC(C)C(C)NC(=O)CSc1nnc(-c2c[nH]c3ccccc23)o1 (stereo unspecified) | -1.1 | -1 | x | 2% | -1
O=C(Nc1ccc(Cl)cc1)NC1CCCCNC1=O (stereo unspecified) | -3.1 | x | x | -3% | 2
CCCCNC(=O)Cn1c2c(c(-c3ccccc3Cl)cc1=O)CCC2 | -1.4 | -7 | -22 | -7% | -7
CCOC(=O)c1c(-c2ccccc2)oc2ccc(OCC(O)CNCCN(C)C)cc12 (stereo unspecified) | -3.9 | x | x | x | 92
CC(C)CNC(=O)c1cc2nc(C3CC3)cc(C(F)(F)F)n2n1 | 0.6 | x | -23 | -3% | 4
CCOC(=O)c1cccc(NC(=O)Cn2c(CC(=O)N3CCCC3)nc3ccccc32)c1 | 2.3 | -7 | -26 | -1% | x
Cc1ccc(OCC(=O)N2CCN(CC3CC4C=CC3C4)CC2)cc1 (stereo unspecified) | 0.9 | 3 | -36 | -7% | 1
O=C(CCn1nc(-c2ccc(Cl)cc2)ccc1=O)N1CCC2(CC1)OCCO2 | 0.4 | 1 | x | 5% | 4
CC1CCCC(C)N1C(=O)c1cc(-c2ccco2)on1 (stereo unspecified) | 0.4 | x | x | x | 6
CCOC(=O)CC(=O)CSc1ccc2nnc(-c3cccc(F)c3)n2n1 | 3.5 | -22 | -50 | -6% | -4
CC(C)n1c(SCC(=O)Nc2ccccc2)nc2c1c(=O)[nH]c(=O)n2C | 6.3 | x | x | -10% | 2
Cc1cc(C)nc(N/N=C/C2=C(O)CC(c3ccc(F)cc3)CC2=O)n1 (stereo unspecified) | -2.1 | x | x | 0% | 22
CC1(c2ccc(Cl)cc2)NC(=O)N(CC(=O)N2CCCC2)C1=O (stereo unspecified) | -3.1 | 10 | -38 | -2% | -10
CC1CCCCN1C(=O)c1ccc(S(=O)(=O)N2CCCCC2C)cc1 (stereo unspecified) | 1.0 | 4 | -27 | 0% | -8 | Arbovirus inh repeat=3
CN(C)C(=O)N1CCC(C(=O)N2CCCC(C(=O)c3cccc4ccccc34)C2)CC1 (stereo unspecified) | -9.6 | 3 | x | -2% | -4
COc1ccc(CCN2C(=O)CC(NNC(=O)c3cccc(O)c3)C2=O)cc1 (stereo unspecified) | -1.7 | 0 | -32 | 3% | -7
CCn1c2ccccc2c2cc(NC(=O)COC(=O)c3ccccc3Br)ccc21 | -0.8 | -5 | -6 | 56% | 68
O=C(Nc1ccccn1)C1CCN(C(=O)Nc2ccccc2)CC1 | -0.7 | x | x | x | -11

Some of these compounds in order of SMILES length, ascending.
SMILES | RecA splice inh | Arbovirus inh | YopH inh | Mtb H37Rv | Mtb bLac sens | others
O=C(Nc1ccccn1)C1CCN(C(=O)Nc2ccccc2)CC1 | -0.7 | x | x | x | -11
CCn1c2ccccc2c2cc(NC(=O)COC(=O)c3ccccc3Br)ccc21 | -0.8 | -5 | -6 | 56% | 68
COc1ccc(CCN2C(=O)CC(NNC(=O)c3cccc(O)c3)C2=O)cc1 (stereo unspecified) | -1.7 | 0 | -32 | 3% | -7

Next part:
SMILES | RecA splice inh | Arbovirus inh | YopH inh | Mtb H37Rv | Mtb bLac sens | others
Cn1c(=O)[nH]c(=O)c2c1nc(SCCN1CCCCC1)n2CCCc1ccccc1 | x | 6 | -19 | -5% | -5
COc1ccc(S(=O)(=O)N2CCC(C(=O)N[C@H](C(=O)NCc3ccncc3)C(C)C)CC2)cc1 | -0.5 | x | x | x | -5
CC(=O)NCCc1nc2cc(NS(=O)(=O)c3ccccc3)ccc2n1C | -1.9 | x | x | x | -2
CCCn1cnnc1CNC(=O)C1CCC(=O)N(CCc2ccc(OC)cc2)C1 (stereo unspecified) | -1.6 | x | x | x | -3
CCOC(=O)c1cnn(-c2cc(Oc3ccccc3)ncn2)c1N | -1.5 | -1 | -44 | -9% | 55
Nc1nnc(-c2cccc([N+](=O)[O-])c2)s1 | -4.5 | 5 | x | 4% | -2
O=C(CN(Cc1cccs1)C(=O)CNS(=O)(=O)c1ccc(Cl)cc1)NCC1CCCO1 (stereo unspecified) | -0.5 | -3 | x | -5% | -7
CC(=O)N1CCN(C2=NC(=O)/C(=C/c3ccc(OS(=O)(=O)c4ccccc4)cc3)S2)CC1 | -0.9 | x | x | x | 4
Cc1cccc(C(=O)Nc2cc(C)ccc2NC(=O)COc2ccccc2)c1 | 0.6 | -5 | -45 | 6% | -9
COc1ccc(C(CNC(=O)c2ccc3c(c2)CCC3)N(C)C)cc1 (stereo unspecified) | -0.1 | x | x | x | -10
O=C1CC(Cc2ccc(Cl)cc2)C(=O)N1c1ccccn1 (stereo unspecified) | 0.9 | -2 | -6 | x | -5
O=C(COC(=O)/C=C/c1ccc(C(F)(F)F)cc1)NCCC1=CCCCC1 | 3.9 | x | x | x | u
CCCC1OC23CCCCC2C(C#N)(C(=N)O3)C1(C#N)C#N (stereo unspecified) | -190 | 8 | 23 | 0% | -2
CCOC(=O)c1c[nH][nH]c1=O | -0.6 | x | x | 0% | -2
C/C(CC(=O)C(F)(F)F)=N\NC(=O)/C(C#N)=C/N(C)C | -0.5 | 3 | x | 1% | 9
C=CCn1c(SCC#N)nc2c(c1=O)C(C)(C)Cc1ccccc1-2 | 12 | -1 | -28 | x | 26
Cc1cc(C)cc(N(CC(=O)NC2CCCC2)C(=O)CCC(=O)Nc2cc(C)on2)c1 | -5.3 | x | x | x | -3
CCCc1nc(SCC(=O)Nc2nnc(SCC)s2)c2c(=O)n(C)c(=O)n(C)c2n1 | -4.0 | 0 | x | 1% | 12
CC(=O)c1c(C)nc(-c2ccc(OCC(=O)Nc3ccc(F)cc3)cc2)n1O | 2.1 | -5 | x | 12% | 6
Cc1cccc(C(=O)NNC(=O)C23CC4CC(CC(C4)C2)C3)c1O | 1.8 | x | x | x | 7
C#Cc1ccc(CN2CCN(CCc3ccccc3)C(CCO)C2)cc1 (stereo unspecified) | 0.1 | x | x | x | -4
Cc1[nH]c2ccccc2c1C(=O)COC(=O)c1ccc([N+](=O)[O-])s1 | -2.3 | -21 | x | 99% | 100
Cc1cccc(OC(=O)Cn2c(C(F)(F)F)nc3ccccc32)c1 | 7.0 | 14 | -17 | x | -4
CC1CN(C(=O)c2ccc(COCC(F)(F)F)o2)CC(C)O1 (stereo unspecified) | 0.6 | 0 | 9 | -17% | 2
COc1ccc(NC(=O)O/N=C/c2ccc(Br)cc2)cc1 | 2.0 | x | x | x | 27
CS(=O)(=O)c1nc(-c2ccc(Br)cc2)n[nH]1 | 0.5 | 24 | x | -2% | 25
CCCN(CCC)CCCNC(=O)c1cc2c(=O)n(C)c3ccccc3c2n1C | 0.3 | 0 | -13 | 0% | 4 | Arbovirus inh repeat=-15
CCOc1ccc(N2CC(C(=O)Nc3ccc(S(=O)(=O)Nc4nccs4)cc3)CC2=O)cc1 (stereo unspecified) | 1.4 | x | x | x | -10
Cc1ccc(NC(=O)CSc2nnc(CNC(=O)c3cccs3)o2)c(C)c1 | 0.3 | -1 | x | 2% | 1
O=C(CNC(=O)c1cccs1)NCCN1CCC(Cc2ccccc2)CC1 | -2.1 | -9 | -13 | 3% | -5

Filtered by structure, those above containing a halogen (21)
SMILES | RecA splice inh | Arbovirus inh | YopH inh | Mtb H37Rv | Mtb bLac sens | others
CC(c1nnc(SCC(=O)Nc2cccnc2Cl)n1Cc1ccccc1)N(C)C (stereo unspecified) | -1.0 | 5 | x | -7% | -1
COC(=O)c1sccc1NC(=S)Nc1ccc(F)cc1 | -3.5 | -2 | -6 | 1% | -4
C=CCc1cc(Cl)ccc1OCCN(C)C | -0.6 | 6 | -40 | 0% | 64
O=C(Nc1nccs1)C1CC(=O)N(c2ccccc2Cl)C1 (stereo unspecified) | -0.2 | 0 | 5 | -3% | -6
O=C(Nc1ccc(Cl)cc1)NC1CCCCNC1=O (stereo unspecified) | -3.1 | x | x | -3% | 2
CCCCNC(=O)Cn1c2c(c(-c3ccccc3Cl)cc1=O)CCC2 | -1.4 | -7 | -22 | -7% | -7
CC(C)CNC(=O)c1cc2nc(C3CC3)cc(C(F)(F)F)n2n1 | 0.6 | x | -23 | -3% | 4
O=C(CCn1nc(-c2ccc(Cl)cc2)ccc1=O)N1CCC2(CC1)OCCO2 | 0.4 | 1 | x | 5% | 4
CCOC(=O)CC(=O)CSc1ccc2nnc(-c3cccc(F)c3)n2n1 | 3.5 | -22 | -50 | -6% | -4
Cc1cc(C)nc(N/N=C/C2=C(O)CC(c3ccc(F)cc3)CC2=O)n1 (stereo unspecified) | -2.1 | x | x | 0% | 22
CC1(c2ccc(Cl)cc2)NC(=O)N(CC(=O)N2CCCC2)C1=O (stereo unspecified) | -3.1 | 10 | -38 | -2% | -10
CCn1c2ccccc2c2cc(NC(=O)COC(=O)c3ccccc3Br)ccc21 | -0.8 | -5 | -6 | 56% | 68
O=C(CN(Cc1cccs1)C(=O)CNS(=O)(=O)c1ccc(Cl)cc1)NCC1CCCO1 (stereo unspecified) | -0.5 | -3 | x | -5% | -7
O=C1CC(Cc2ccc(Cl)cc2)C(=O)N1c1ccccn1 (stereo unspecified) | 0.9 | -2 | -6 | x | -5
O=C(COC(=O)/C=C/c1ccc(C(F)(F)F)cc1)NCCC1=CCCCC1 | 3.9 | x | x | x | u
C/C(CC(=O)C(F)(F)F)=N\NC(=O)/C(C#N)=C/N(C)C | -0.5 | 3 | x | 1% | 9
CC(=O)c1c(C)nc(-c2ccc(OCC(=O)Nc3ccc(F)cc3)cc2)n1O | 2.1 | -5 | x | 12% | 6
Cc1cccc(OC(=O)Cn2c(C(F)(F)F)nc3ccccc32)c1 | 7.0 | 14 | -17 | x | -4
CC1CN(C(=O)c2ccc(COCC(F)(F)F)o2)CC(C)O1 (stereo unspecified) | 0.6 | 0 | 9 | -17% | 2
COc1ccc(NC(=O)O/N=C/c2ccc(Br)cc2)cc1 | 2.0 | x | x | x | 27
CS(=O)(=O)c1nc(-c2ccc(Br)cc2)n[nH]1 | 0.5 | 24 | x | -2% | 25
